# Screening results as filed in PubChem.
# Mtb growth: Mycobacterium tuberculosis H37Rv growth inhibition, cell based, confirmatory dose response (AID 1949); most inactive calls were filed without a number and no value below 0 was filed; inhibition, % at 10 µg/mL; hits with a dose series show IC50 in µg/mL; 100,000 tested, 1.6% active;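 active = confirmed in a dose series; inconclusive = about 50% or more but not retested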;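 note: bacteria grown 7 days with compound before Alamar blue readout; 0% = untreated bacteria and 100% = reference antibiotic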
# * = called active by the depositor; i = inactive; ? = inconclusive. Not all compounds are listed; rates above refer to the full screens.
# Sample of the layout (8 entries):
SMILES,Mtb growth
O=C(NC(=S)NC1CCCC1)c1ccccc1,i
CC(=O)CC(=O)Nc1ccc(NC(=O)CC(C)=O)c(Cl)c1,i
Cc1c(C(=O)Nc2ccccc2)sc2ncn(Cc3cccc(Cl)c3)c(=O)c12,i
N#CC1=C(N)N2C(=C(C#N)C13CCCC3)Nc1ccccc12,i
COc1ccc(C(=O)OCc2cccc(Cl)c2)cc1,i
CCOC(=O)c1nn(-c2ccccc2)c(C(=O)OCC)c1N,i
O=C(Nc1c(C(=O)N2CCCCCC2)cnn1-c1ccccc1)c1ccc(F)cc1,2%
Cc1onc(-c2c(F)cccc2Cl)c1C(=O)Nc1ccccc1C(N)=O,i

# Main list, from the first entry:
SMILES,Mtb growth
O=C(NC(=S)NC1CCCC1)c1ccccc1,i
CC(=O)CC(=O)Nc1ccc(NC(=O)CC(C)=O)c(Cl)c1,i
Cc1c(C(=O)Nc2ccccc2)sc2ncn(Cc3cccc(Cl)c3)c(=O)c12,i
N#CC1=C(N)N2C(=C(C#N)C13CCCC3)Nc1ccccc12,i
COc1ccc(C(=O)OCc2cccc(Cl)c2)cc1,i
CCOC(=O)c1nn(-c2ccccc2)c(C(=O)OCC)c1N,i
O=C(Nc1c(C(=O)N2CCCCCC2)cnn1-c1ccccc1)c1ccc(F)cc1,2%
Cc1onc(-c2c(F)cccc2Cl)c1C(=O)Nc1ccccc1C(N)=O,i
Cc1ccc(NC(=O)CN(c2cccc(Cl)c2)S(=O)(=O)c2ccc(Cl)cc2)c(C)c1,5%
Cc1cc(OCC(=O)Nc2nccs2)cc(C)c1Br,i
Cc1cc(=O)[nH]c(SCC(=O)Nc2ccc(Cl)c(Cl)c2)n1,i
NC(=O)COc1ccc(Br)cc1C1C2=C(CCCC2=O)NC2=C1C(=O)CCC2,i
COc1c(Cl)cc(C(=O)Nc2nnn(C)n2)cc1Cl,4%
COc1ccc(Cl)cc1Nc1nc(C)cc(=O)[nH]1,15%
CC(C)(C)C(=O)N1CCN(c2ccccc2[N+](=O)[O-])CC1,i
Cc1ccc(-n2cnc3cc(NCc4cccs4)ccc32)cc1,2.9µg/mL*
COc1ccc(NC(=O)CC2NC(=O)NC2=O)cc1 (stereo not drawn),i
Cc1cccc(-n2ncc3c(NCCCO)ncnc32)c1,i
Cc1ccc(NC(=O)CSc2nc(O)c(Cc3ccccc3)c(=O)n2-c2ccccc2)cc1,i
CCOC(=O)N1CCN(C(=S)Nc2cccc3ccccc23)CC1,i
CC(NC(=O)CC1Nc2cccc3cccc(c23)NC1=O)c1ccccc1 (stereo not drawn),5%
Cc1ccc(OCC(=O)NC(=S)Nc2cccc(F)c2)cc1C,i
O=C(NCCC1=CCCCC1)C(=O)NCCc1ccc(Cl)cc1,1%
COC(=O)C1=CN(CCCN2CCCC2=O)C=C(C(=O)OC)C1c1cccs1,1%
COc1cc(C(=O)NC2(C(F)(F)F)C(=O)NC(C)=C2C#N)cc(OC)c1OC (stereo not drawn),i

# Brought forward from above: 12 compounds; new compounds follow.
SMILES,Mtb growth
COc1ccc(Cl)cc1Nc1nc(C)cc(=O)[nH]1,15%
CC(C)(C)C(=O)N1CCN(c2ccccc2[N+](=O)[O-])CC1,i
Cc1ccc(-n2cnc3cc(NCc4cccs4)ccc32)cc1,2.9µg/mL*
COc1ccc(NC(=O)CC2NC(=O)NC2=O)cc1 (stereo not drawn),i
Cc1cccc(-n2ncc3c(NCCCO)ncnc32)c1,i
Cc1ccc(NC(=O)CSc2nc(O)c(Cc3ccccc3)c(=O)n2-c2ccccc2)cc1,i
CCOC(=O)N1CCN(C(=S)Nc2cccc3ccccc23)CC1,i
CC(NC(=O)CC1Nc2cccc3cccc(c23)NC1=O)c1ccccc1 (stereo not drawn),5%
Cc1ccc(OCC(=O)NC(=S)Nc2cccc(F)c2)cc1C,i
O=C(NCCC1=CCCCC1)C(=O)NCCc1ccc(Cl)cc1,1%
COC(=O)C1=CN(CCCN2CCCC2=O)C=C(C(=O)OC)C1c1cccs1,1%
COc1cc(C(=O)NC2(C(F)(F)F)C(=O)NC(C)=C2C#N)cc(OC)c1OC (stereo not drawn),i
NS(=O)(=O)c1cccc(NC(=O)CC23CC4CC(C2)CC(CC(=O)Nc2cccc(S(N)(=O)=O)c2)(C4)C3)c1,7%
Cn1c(SCc2ccc([N+](=O)[O-])cc2)nnc1-c1ccncc1,i
COc1ccc(CNC(=O)C2Cc3ccccc3CN2S(=O)(=O)c2cccs2)cc1 (stereo not drawn),i
COc1cc(NC(=O)c2ccccc2)ccc1NC(=O)c1ccccc1,i
Cc1cc(NC(=O)Cc2cccs2)no1,i
COc1ccc(-c2noc(CSc3nnc(C)n3-c3ccccc3)n2)cc1OC,i
COC(=O)Cc1c(C)c2ccc(OCc3ccc(F)cc3F)cc2oc1=O,i
Cc1cc(C)cc(N2C(=O)CC(SCC(=O)Nc3ccc(Cl)cc3)C2=O)c1 (stereo not drawn),i
Cc1cc(C(=O)NCc2ccco2)no1,i
O=C(CSc1nnc(-c2ccccc2)n1-c1ccc(Cl)cc1)NCc1ccco1,i
CC(=O)Oc1ccc(-c2cccc(C(=O)OC(C)C)c2)cc1,26%
N#CC1=C(N)SC(N)=C(C#N)C1c1cc(Br)ccc1F,i
COc1ccc(C(=O)NC(=S)Nc2ccc(NC(=O)c3ccco3)c(OC)c2)cc1,i
CC(C)OCCCNC(=O)c1ccccc1CCc1ccccc1,i
CC(Sc1ccc(Cl)cc1)C(=O)Nc1ccccc1F (stereo not drawn),i
CC(=O)Nc1ccc(-c2nnc(SCC(=O)Nc3ccc(F)cc3)n2C)cc1,i
CC(C(=O)Nc1ccccc1Cl)(C(F)(F)F)C(F)(F)F,i
COc1ccc(NC(=O)C(C)Sc2nc(N)cc(=O)[nH]2)cc1 (stereo not drawn),i
COc1ccc2cc(Br)ccc2c1CC(=O)N1CCCC1,i
Cc1cc(NC(=O)CSc2nnnn2-c2ccccc2C)no1,1.4µg/mL*
O=C(Nc1ccc(Cl)cn1)c1ccccc1Br,i
CCCOc1ccc(CC(=N)N)cc1,i
Brc1ccc(-c2noc(C3CCCCC3)n2)cc1,i
CCCn1c(NCc2ccc(Cl)cc2)nc2ccccc21,?
COc1ccccc1CNC(=O)Cc1ccc(F)cc1,i
# Other structures.
SMILES,Mtb growth
CCC(C)(C)C1CCc2sc3ncnc(N4CCN(C)CC4)c3c2C1 (stereo not drawn),6.4µg/mL*
COc1cc(C2CC(=O)n3nc(-c4ccccc4)nc3S2)cc(OC)c1OC (stereo not drawn),i
CCOc1ccc(C(=O)Nc2ccc(N3CCN(C(=O)c4ccccc4C)CC3)cc2)cc1Cl,i
CCOc1ccc(NC(=S)NC(C)c2cccs2)cc1 (stereo not drawn),i
N#Cc1ccccc1Sc1ccccc1C(=O)NCc1ccccn1,i
CN(c1ccc(C(=O)NCCSCc2c(F)cccc2Cl)cc1)S(=O)(=O)c1ccccc1,1%
CCN(CC)C(=O)c1sc(NC(=S)NC2CCCc3ccccc32)c(C(=O)OC)c1C (stereo not drawn),2%
O=S(=O)(NCc1cccnc1)c1ccc(C2CCCCC2)cc1,i
O=C(Nc1cnn(Cc2ccc(Cl)cc2)c1)c1ccccc1,6%
Cc1ccc(N2CC(C(=O)Nc3ncccn3)CC2=O)cc1 (stereo not drawn),i
O=C(Nc1ccccc1Br)C1CCN(C(=O)c2ccccc2Cl)CC1,i
CCOc1ccccc1NC(=S)Nc1cccc(Cl)c1,21%
Cc1cccc(NC2(C(F)(F)F)N=C3SCCN3C2=O)n1 (stereo not drawn),i
N#Cc1ccc(-c2ccc(Cl)cc2Cl)o1,i
O=C(Nc1cccc(NC(=O)c2cccs2)c1)c1ccc2c(c1)OCO2,i
COc1ccc(CC(=O)NNC(=O)COc2ccc(C(C)C)cc2Br)cc1,i
Clc1ccc(Cl)c(-c2nc(-c3ccccc3Cl)no2)c1,i
COc1c(Cl)cc(Cl)cc1C(=O)NCc1ccco1,i
Cc1ccc(CN2C(=O)C(=O)c3ccccc32)c(C)c1,10%
COc1ccc(C2=NC(C(F)(F)F)(C(F)(F)F)c3c(n(-c4ccccc4)c(=O)[nH]c3=O)N2)cc1,2%
CCC1(C)N(O)C(C)C(c2ccccc2)=[N+]1[O-] (stereo not drawn),0%
O=C(Nc1nccs1)C1CCC(C(=O)Nc2nccs2)CC1 (stereo not drawn),0%
CCC(=O)NC(=S)Nc1ccc(NC(=O)c2cc(I)ccc2Cl)cc1,0.43µg/mL*
Cc1cc(C)nc(/N=C(/N)N2CCOCC2)n1,i
CC(=O)Nc1ccc(-c2csc(NCc3ccco3)n2)cc1,i
# (cont.)
SMILES,Mtb growth
Cc1cc(C)cc(NC(=S)NC(=O)CCN2C(=O)c3ccccc3C2=O)c1,i
Cc1cccc(-n2c(N)cc(=O)nc2SCC(=O)Nc2nnc(C)s2)c1,i
COc1ccc(-c2cc3ccccc3oc2=O)cc1NC(=S)NC(=O)c1cccs1,i
CCn1c(=O)[nH]c2cc(C(=O)O)ccc2c1=O,i
O=C1CC(c2ccccc2)CN1Cc1ccccc1 (stereo not drawn),i
COc1ccc(CC(=O)Nc2cc(Cl)ccc2O)cc1,i
NC(=O)c1ccccc1OCC(=O)Nc1cccc(C(F)(F)F)c1,i
Nc1nnc(SCc2ccc(I)cc2)s1,i
COCc1cc(C)nc(Nc2ccc(C)cc2)c1C#N,i
COc1ccc(-c2cc(C(F)(F)F)nc(SCC(=O)N3CCc4ccccc4C3)n2)cc1OC,i
O=C(NNC(=O)C(Cl)Cl)c1cccc(Cl)c1,3%
CCCC(=O)Nc1cc(-c2nc3ccccc3s2)ccc1Cl,i
O=c1cc(-c2ccccc2)nc(Nc2nc3ccccc3o2)[nH]1,46%
Fc1ccc(OCc2nn3c(-c4ccccc4Cl)nnc3s2)cc1,i
Cc1nc(CN2CCN(Cc3csc(C)n3)CC2)cs1,0%
COc1ccccc1OCC(=O)N(Cc1ccc(N(C)C)cc1)C1CCS(=O)(=O)C1 (stereo not drawn),i
O=C(c1ccco1)N1CCN(c2ncnc3c2oc2ccccc23)CC1,i
C=CCNCCOCCOc1c(Cl)cc(C)cc1Br,i
COc1ccc(Nc2nc(N)nc(CN3CCC(C)CC3)n2)cc1,19%
CCc1ccc(N2CC(C(=O)Nc3cccc(OC(C)C)c3)CC2=O)cc1 (stereo not drawn),29%
CN1CC(C(=O)Nc2ccc(I)cc2)CC1=O (stereo not drawn),i
COc1cccc(NC(=O)c2ccc(NC(=O)c3ccc(Cl)cc3Cl)cc2)c1,i
CSc1ccccc1NC(=O)c1ccccc1N(C)S(=O)(=O)c1ccc(C)cc1,i
Cc1ccc(S(=O)(=O)N(CC(=O)N2CCN(c3ccccc3)CC2)c2ccccc2C)cc1,i
O=C(CC(c1ccccc1)c1ccccc1)Nc1ccc2c(c1)OCCO2,11%
# Later entries.
SMILES,Mtb growth
CCOc1ccccc1NC(=O)COc1ccc(-c2ccc(C)cc2)cc1,i
COc1ccc(OC)c(NC(=O)CSc2nnc(C)s2)c1,i
CC(O)CNCCCOc1ccc2ccccc2c1Br (stereo not drawn),i
COc1cccc(N(CC(=O)Nc2ccc(F)cc2F)S(=O)(=O)c2ccc(C)cc2)c1,2%
O=c1[nH]c(CSc2nnc(-c3ccncc3)n2-c2ccccc2)nc2ccccc12,i
COc1cc(C2SCC(=O)Nc3c2c(C)nn3-c2ccccc2)cc(OC)c1OC (stereo not drawn),i
O=C1c2ccccc2C(=O)N1CN(C(=O)c1ccccc1)c1ccc(O)cc1,i
O=C(CSc1nccn1Cc1ccccc1)c1ccc(F)cc1,i
COc1ccc(C(=O)Nc2c(C)n(C)n(-c3ccccc3)c2=O)cc1[N+](=O)[O-],i
COc1ccccc1NC(=O)c1ccc(COc2ccc(C)c(C)c2)o1,i
O=S(=O)(c1ccc2ccccc2c1)N1CCC(N2CCN(Cc3ccccc3)CC2)CC1,i
O=C(Nc1cccc(Cl)c1)c1cnn2cccnc12,i
COc1c2occc2c(OC)c2c(=O)cc(C(F)F)oc12,i
COc1ccc(CCNC(=O)Nc2ccccc2C(F)(F)F)cc1OC,i
NS(=O)(=O)c1ccc(CCNC(=O)COc2ccc(Cl)cc2Cl)cc1,i
COc1ccc(NC(=O)CSc2nc3ccc(N)cc3s2)c([N+](=O)[O-])c1,i
Brc1ccc2ncnc(Nc3ccc(N4CCCC4)cc3)c2c1,<0.1µg/mL*
COc1cccc(C=NN2CCN(c3ccc(Cl)cc3)CC2)c1O,i
CSc1ccc(Cl)c(C(=O)Nc2ccc(NC(=O)C34CC5CC(CC(C5)C3)C4)cc2)c1,i
COC(=O)COc1ccc(S(=O)(=O)N2CCN(c3cccc(Cl)c3)CC2)cc1Cl,i
CCN1C(=O)C(O)(c2c[nH]c3ccccc23)c2ccccc21 (stereo not drawn),1%
O=C(Cc1ccccc1)OCc1ccc(S(=O)(=O)Cc2ccccc2)cc1,i
COc1ccccc1NC(=O)CN(c1ccc(C)c(C)c1)S(=O)(=O)c1ccc(Cl)cc1,i
Cc1ccc(-c2noc(CN3CCN(c4ccccc4)CC3)n2)cc1,i
COc1ccc(OC)c(CN2CCN(C(=O)c3cccc(Cl)c3)CC2)c1,i
# Additional entries
SMILES,Mtb growth
Clc1cc(Br)ccc1OCCCCn1c2ccccc2c2ccccc21,i
Cc1ccc(NC(=S)c2ccccn2)c(C)c1,4.2µg/mL*
Cc1ccc(C(=O)O/N=C(\N)Cc2ccc(Cl)c(Cl)c2)cc1,i
CC1CCN(CCOc2ccc(C(=O)c3ccccc3)cc2)CC1,i
CN(c1ccccc1)S(=O)(=O)c1ccc2[nH]c(=O)oc2c1,i
CCN(CC)S(=O)(=O)c1ccc(NC(=O)c2cc(-c3ccccc3)nc3ccccc23)cc1,i
Cc1ccc(SCCNC(=S)NCc2ccco2)cc1,i
Cc1nnc(-n2nc(-c3ccccc3)cc2N)[nH]c1=O,51%
O=C(O)c1ccc(COc2ccc3ccccc3c2)cc1,i
Cc1ccc2oc(-c3ccc(NC(=O)c4cccc(F)c4)cc3)nc2c1,i
O=C(CCC1CCCCC1)NCc1ccccn1,i
N#Cc1cccc(OCc2ccccc2)c1,1%
O=c1c2c(nc3nc(-c4ccco4)[nH]n13)CCC2,i
O=C(NCc1ccco1)c1cnn2cccnc12,i
Cc1ccc(C(=O)Nc2cccc3ncccc23)cc1Cl,1%
COc1ccc(-c2noc(CSc3nc4ccccc4c(=O)n3-c3ccccc3)n2)cc1,i
